NS1 inh – qHTS Assay for Inhibitors of Influenza NS1 Protein Function | S. cerevisiae slowed by influenza A NS1, growth recovery by OD600 | AID 2326, 2010 | Potency, µM (highest dose often 46.1 µM), for the others: at the top dose activity, positive = more growth | actives 0.4% (n = 270,000); active means well fitted rising curve with a large enough effect; inconclusive means small, poorly fitted or top-dose-only effect; inactive means no such curve, though single readings can be large or run the other way; further: nearly all actives have a fitted effect of over 50% in size
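In this qHTS, NS1 from influenza A is expressed in budding yeast, where it slows growth. Cells are switched from glucose to 2% galactose medium (pH 6.0, -URA), treated with compound, and growth recovery is read at OD600.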
Cruzain Triton – qHTS Assay for Promiscuous and Specific Inhibitors of Cruzain (with detergent) | Cruzipain (Trypanosoma cruzi), P25779 | purified cruzain, Z-FR-AMC fluorescence, 0.01% Triton | Potency, µM, inactives show max response, negative = inhibition, hits mostly inhibitors | actives 0.43% (n = 200,000) | AID 1478, 2009;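 further: plate controls were neutral wells for no effect and buffer without enzyme for full effect; nearly all actives have a fitted effect of over 40% in size; top concentration of the series not given in the record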
Target sequence (P25779 123-467 limits assumed): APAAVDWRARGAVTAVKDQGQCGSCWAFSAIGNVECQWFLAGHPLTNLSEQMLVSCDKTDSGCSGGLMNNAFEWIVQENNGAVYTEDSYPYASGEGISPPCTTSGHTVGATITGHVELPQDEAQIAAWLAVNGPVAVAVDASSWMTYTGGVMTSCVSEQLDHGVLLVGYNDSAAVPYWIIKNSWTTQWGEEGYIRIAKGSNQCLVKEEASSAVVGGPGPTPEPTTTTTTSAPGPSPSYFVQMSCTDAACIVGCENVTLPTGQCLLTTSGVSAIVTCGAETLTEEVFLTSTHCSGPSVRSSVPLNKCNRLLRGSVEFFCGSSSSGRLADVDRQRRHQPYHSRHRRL
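Purified cruzain (1.5 nM final) was preincubated with compounds for 15 min at room temperature in 100 mM sodium acetate pH 5.5, 5 mM DTT, 0.01% Triton X-100. Reaction started with 2 uM Z-FR-AMC; AMC fluorescence change over 60 s gave activity.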
RE007 growth inh – qHTS Assay for Inhibitors of the HIV-1 protein Vpr | S. pombe RE007 Vpr strain, BacTiter-Glo ATP luminescence, 24 h; control for the full effect not named in the record | Potency, µM (highest dose often 92.2 µM), for the others: at the top dose activity change, negative = less growth | actives 0.21% (n = 360,000) | AID 651644, 2012; active = well fitted falling curve with a large enough effect; inconclusive = small, poorly fitted or top-dose-only effect; inactive = no such curve, though single readings can be large or run the other way;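 further: on the % scale 0 is the no-effect control and ±100 the full control effect; nearly all actives have a fitted effect of over 50% in size; the assay follows cell death caused by Vpr and the record does not say whether a fall means rescue or toxicity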
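Fission yeast RE007 carrying one integrated HIV-1 vpr copy, seeded at OD 0.01 in PMG+AL medium with 23 nL pinned compound. Grown 24 h at 30 degrees; viability read by BacTiter-Glo luminescence after 5 min.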
2A StopGo – High Throughput Screening for Foot and Mouth Disease Virus Antivirals; human cells with a luciferase reporter of 2A StopGo recoding; control for the full effect not named in the record; Potency, µM (titrated, usually from 57.9 µM), inactives show at the highest dose signal change, negative = less light; actives 1.2% (n = 410,000); active = well fitted falling curve with a large enough effect; inconclusive = small, poorly fitted or top-dose-only effect; inactive = no such curve, though single readings can be large or run the other way; tested in HEK293T cells; further: on the % scale 0 is the no-effect control and ±100 the full control effect; nearly all actives have a fitted effect of over 45% in size; luciferase light after 4 h
LASV entry inh – qHTS for Inhibitors of binding or entry into cells for Lassa Virus; actives 1.2% (n = 300,000); AID 540256, 2011; Lassa virus pseudotype entry inhibition, cell reporter; control for the full effect not named in the record; Potency, µM (titrated, usually from 37.9 µM), without a hit: top-dose activity change, negative = inhibition, hits mostly inhibitors; active means well fitted inhibition curve with a large enough effect; inconclusive means small, poorly fitted or top-dose-only effect, or effect the other way; inactive means flat fitted curve, though single readings scatter; tested in HEK293 cells; further: on the % scale 0 is the no-effect control and ±100 the full control effect; nearly all actives have a fitted effect of over 50% in size; luciferase read-out
MARV entry inh – qHTS for inhibitors of binding or entry into cells for Marburg Virus; Potency, µM (top dose mostly 37.8 µM), inactives show top-dose activity change, negative = inhibition, usual class: inhibitors; Marburg virus pseudotyped entry inhibition, cell reporter; control for the full effect not named in the record; about a third of the inactives were read at about 46 µM; actives 1.8% (n = 300,000); active = well fitted inhibition curve with a large enough effect; inconclusive = small, poorly fitted or top-dose-only effect, or effect the other way; inactive = flat fitted curve, though single readings scatter; tested in HEK293 cells; about a fifth of its hits are not listed in these tables; further: on the % scale 0 is the no-effect control and ±100 the full control effect; luciferase read-out
Cruzain inh noDet – qHTS Assay for Promiscuous and Specific Inhibitors of Cruzain (without detergent) | purified cruzain, Z-FR-AMC fluorescence, no detergent | Potency, µM, for inactives: max response, negative = inhibition, most hits filed as inhibitors | actives 2.3% (n = 200,000) | Cruzipain (Trypanosoma cruzi), P25779;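 further: plate controls were enzyme without inhibitor for no effect and buffer without enzyme for full effect; nearly all actives have a fitted effect of over 40% in size; top concentration of the series not given in the record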
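Purified cruzain at 1.5 nM, pre-incubated 15 min with compound at room temperature in 100 mM sodium acetate pH 5.5, 5 mM DTT, 0.00005% Triton X-100. Reaction started with 2 uM Z-FR-AMC; AMC fluorescence increase over 60 s gives rate.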
SARS PLpro yeast – qHTS of Yeast-based Assay for SARS-CoV PLP | S. cerevisiae expressing SARS-CoV PLpro, growth rescue; control for the full effect not named in the record | Potency, µM (titrated, usually from 32.9 µM), for the others: at the highest dose activity, positive = growth rescue | actives 0.19% (n = 330,000) | AID 485353, 2010; active means well fitted rising curve with a large enough effect; inconclusive means small, poorly fitted or top-dose-only effect; inactive means no such curve, though single readings can be large or run the other way; further: 0% is about no effect; nearly all actives have a fitted effect of over 55% in size; growth read by luminescence after 48 h
The depositor's hits bear a star; ? = inconclusive; · = no result given; & = joins results of further samples; [ ] = another dose, or the depositor's remark. Unless noted, the call rests on the fitted dose curve; in most records, active means well fitted curve in the direction sought with a large enough effect; inconclusive means small, poorly fitted or top-dose-only effect, or another doubt; inactive means no such curve, though single readings can be large; an effect the other way counts as inactive or inconclusive. Potency means the concentration at half of the fitted maximal effect. Random draw from the library; about 4.7% have a hit in one of these screens.

SMILES	NS1 inh	Cruzain Triton	RE007 growth inh	2A StopGo	LASV entry inh	MARV entry inh	Cruzain inh noDet	SARS PLpro yeast
O=C(COC(=O)c1cc(-c2ccccc2)nc2ccccc12)Nc1ccc2c(c1)OCO2	12.1%	-3.8%	2.0%	-24.4%	8.0%	?	?	6.1%
O=C(Oc1ccccc1-c1nnco1)c1ccccc1	-6.9%	-7.3%	-13.2%	24.2%	?	?	7.9%	·
Cc1cc(C)cc(OCC(=O)NC2CCCc3ccccc32)c1 (stereo not given)	-19.1%	-9.2%	1.6%	-10.5%	?	?	6.6%	·
COc1ccc(-c2[nH]c(-c3ccc(C)cc3)nc2SCC(=O)NC2CCCC2)cc1	6.1%	-2.9%	5.7%	-10.7%	?	?	-1.6%	1.4%
Cc1ccc(Cn2ccc(O)c(Cc3ccccc3)c2=O)cc1	5.7%	·	9.6%	4.0%	·	·	·	-0.1%
N#CC1=C(Nc2ccccc2)SC=C(c2ccc(Br)cc2)N=C1N1CCOCC1	3.9%	-0.2%	-6.7%	-21.5%	-10.0%	?	-7.1%	-4.1%
COc1cc(/C=N\Nc2nc3ccccc3o2)cc(OC)c1OC	2.6%	-0.8%	11.9%	·	?	-0.4%	18.0%	-2.3%
Cc1ccccc1C(=O)OCc1cc(=O)n2nc(-c3cccs3)sc2n1	·	2.0%	·	-10.2%	26.6%[46.1 µM]	·	-6.6%	·
CCOC(=O)c1cc2c(n(-c3ccccc3)c1=O)CC(C)(C)CC2=O	6.0%	3.7%	-6.2%	-10.6%	-6.4%	11.9%	0.3%	5.5%
COc1cc(Br)cc(/C=C/c2ccc3cccc(O)c3n2)c1O	7.7%	·	-2.9%	0.0%	·	·	·	-0.4%
CC1CN(C(=S)NC(=O)C2CCCCC2)CC(C)O1 (stereo not given)	-2.4%	-1.7%	-10.5%	17.7%	23.1%	1.9%	-9.8%	9.4%
COc1ccc(/C=C/C(=O)OCC(=O)NC(C)CCc2ccccc2)cc1 (stereo not given)	·	·	1.0%	-8.9%	?	11.9%	·	-0.1%
Cc1ccc(C(=O)N(CN2CCCC2=O)c2ccccc2)cc1C	10.3%	-1.0%	10.1%	27.1%	-16.6%	21.7%	-6.9%	-2.8%
COc1ccc(C(C)=O)cc1CSc1nncn1-c1ccccc1	11.0%	-0.7%	2.2%	-4.6%	?	-0.3%	3.1%	-3.4%
C=CCSc1nc2sc3c(c2c(=O)n1CC)CCc1ccccc1-3	-6.2%	-8.5%	?	2.4%	-4.1%	-6.8%	?	-3.7%
Cc1cc(=O)[nH]c(SCc2nc3ccc([N+](=O)[O-])cc3[nH]2)n1	13.1%	-7.5%	15.3%	-14.1%	-4.3%	4.1%[46.1 µM]	-9.9%	10.9%
COc1cc(C)c(S(=O)(=O)NCc2cccnc2)cc1C	-2.4%	·	3.1%	57.5%[activator]	·	·	·	1.0%
Cn1cc(-c2cc3n(n2)CCC(=O)N3CC(=O)NCc2ccc(Cl)cc2)c2ccccc21	·	-2.7%	·	-27.9%	-8.4%[46.1 µM]	·	?	·
CC(C)COc1ccc(C(=O)Nc2ccc(NC(=O)c3ccco3)c(Cl)c2)cc1	2.6%	5.1%	-15.0%	-16.1%	?	?	-10.5%	-1.6%
CCC1=NN2C(=N)/C(=C/c3ccc(OS(=O)(=O)c4ccc(C)cc4)c(OC)c3)C(=O)N=C2S1	20.0%	·	-18.5%	1.1%	5.7%[46.1 µM]	11.8%[46.1 µM]	·	6.4%
Nc1cccc(S(=O)(=O)Nc2ccc(SC(F)F)cc2)c1	6.1%	·	-6.1%	3.7%	-22.5%	-4.2%[46.1 µM]	·	0.5%
CC(=O)c1cccc(N(CC(=O)Nc2cccnc2)S(C)(=O)=O)c1	4.5%	3.2%	0.3%	·	2.3%	0.9%	3.0%	4.0%
COc1cccc(C(=O)COc2ccc3c(C)c(Cc4ccccc4)c(=O)oc3c2C)c1	4.0%	-7.6%	·	·	-13.6%	-17.8%	?	5.1%
Cc1ccc(NC(=O)c2cc(F)c(F)cc2Cl)nc1	-7.6%	·	-13.0%	-3.9%	-22.6%[46.1 µM]	?	·	0.2%
Cc1nn(CC(=O)OCC(=O)Nc2c(C(C)C)cccc2C(C)C)c(C)c1[N+](=O)[O-]	-3.6%	-2.8%	-2.9%	2.5%	?	?	5.8%	-12.3%
CCOc1ccc(NC(=O)N2CCCC2C(=O)NCc2ccco2)cc1 (stereo not given)	10.0%	·	14.2%	-11.8%	1.4%	8.4%[46.1 µM]	·	0.7%
CCN1CCN(Cc2ccc(NC(=O)c3ccc(C)c(/C=C/c4cnc(Nc5cc(N6CCNCC6)nc(C)n5)cn4)c3)cc2C(F)(F)F)CC1	-20.3%	·	-7.7%&-13.2%	?	·	·	·	-3.3%
Cc1cccc(-c2nc3sc(C)cc3c(=O)o2)c1	0.5%	·	-8.0%	27.6%	23.3%	?	·	0.7%
CC(=O)c1sc2nc(C)c3c(c2c1N)CCCC3	-10.8%	·	1.3%	14.4%	11.6%	8.8%[46.1 µM]	·	0.9%
Cc1c(NC(=S)N2CCN(c3ccc(F)cc3)CC2)c(=O)n(-c2ccccc2)n1C	-7.8%	·	-1.3%	2.4%	·	·	·	-0.3%
COc1ccc(-c2nn(-c3ccccc3)cc2/C=N/Nc2cccc(C(=O)O)c2)cc1	·	·	-6.1%	49.2%[activator]	-20.7%	-14.0%	·	-3.7%
CCOC(=O)c1cnc2c(C)cc(C)cc2c1Nc1ccccc1OCC	·	1.0%	·	-18.0%	-21.0%[46.1 µM]	·	7.1%	·
CC(CCc1ccccc1)NC(=O)CN(C)Cc1ccccc1F (stereo not given)	·	·	-7.9%	-16.7%	-23.1%[46.1 µM]	?	·	-1.1%
Cc1ccc(-n2nc(CN3CCOCC3)c(-c3ccccc3)c2N)cc1Cl	6.4%	-1.2%	-2.1%	?	9.6%	0.5%	5.5%	11.7%
Cc1cccc(-c2noc(CN(C(=O)/C=C/c3ccccc3Cl)C(C)C)n2)c1	5.7%	-7.9%	0.5%	-1.2%	5.3%	-9.3%	-3.1%	6.9%
CCC(Sc1nncn2c1cc1sccc12)C(=O)Nc1cccc(OC)c1 (stereo not given)	·	-2.5%	·	-22.9%	?	·	1.4%	·
CC(=O)Nc1cccc(NC(=O)CSc2nnc3ccccn23)c1	·	·	3.3%	-16.8%	-1.9%	4.5%	·	2.9%
C=CCSc1n[nH]c(-c2ccccc2)n1	-11.8%	-1.0%	-22.1%	21.9%	11.4%	?	-10.5%	-15.9%
COc1ccc(CCN2C(=O)CSC2=Nc2ccc(C)cc2C)cc1OC	-8.2%	·	4.6%	12.6µM*	?	?	·	-1.1%
Cc1ccccc1CN1CCCC(C(=O)Nc2ccccc2Oc2cccnc2)C1 (stereo not given)	-1.2%	·	3.2%	-25.4%	·	·	·	3.1%
Cc1ccccc1-n1c(=O)cc(N2CCN(C(=O)c3ccco3)CC2)[nH]c1=O	-82.2%	-2.9%	-4.6%	-19.9%	·	·	-19.8%	12.4%
CC(C)(CN=C1NS(=O)(=O)c2ccccc21)CNC(=O)CN1C(=O)c2ccccc2C1=O	-15.3%	2.4%	-2.6%	-18.4%	16.1%	-0.4%&-0.4%	7.1%	2.1%
CC(OC(=O)C1CCN(S(=O)(=O)c2ccccc2C(F)(F)F)CC1)C(=O)N(C)Cc1ccccc1 (stereo not given)	-10.2%	·	12.5%	?	-0.3%	-7.4%	·	26.2%
COc1ccc(OC)c(NC(=O)Cn2c(=O)c3cccn3c3ccccc32)c1	·	-6.0%	·	-4.9%	?	·	-19.9%	·
Cc1ncc(CN2CCC(C(=O)Nc3ccc(Oc4cccnc4)cc3)CC2)cn1	-0.6%	·	-12.7%	0.0%	-9.6%	-2.0%	·	7.3%

Three entries drawn at random from the list so far, as already listed:
SMILES	NS1 inh	Cruzain Triton	RE007 growth inh	2A StopGo	LASV entry inh	MARV entry inh	Cruzain inh noDet	SARS PLpro yeast
Cc1cccc(-c2nc3sc(C)cc3c(=O)o2)c1	0.5%	·	-8.0%	27.6%	23.3%	?	·	0.7%
Cc1nn(CC(=O)OCC(=O)Nc2c(C(C)C)cccc2C(C)C)c(C)c1[N+](=O)[O-]	-3.6%	-2.8%	-2.9%	2.5%	?	?	5.8%	-12.3%
COc1cc(C)c(S(=O)(=O)NCc2cccnc2)cc1C	-2.4%	·	3.1%	57.5%[activator]	·	·	·	1.0%

Later entries.
SMILES	NS1 inh	Cruzain Triton	RE007 growth inh	2A StopGo	LASV entry inh	MARV entry inh	Cruzain inh noDet	SARS PLpro yeast
CCOC(=O)C1CCN(CC(O)COc2ccc(C(C)=O)cc2)CC1 (stereo not given)	5.6%	0.7%	-10.6%	0.0%	·	·	-3.4%	3.8%
O=C(CS(=O)(=O)c1cn(Cc2ccccc2Cl)c2ccccc12)N1CCOCC1	-8.5%	-1.7%	6.4%	·	-14.2%	-10.6%	?	-6.6%
Cn1c(=O)c2c(ncn2CCC(=O)N/N=C/c2ccccc2)n(C)c1=O	4.4%	·	1.4%	-6.2%	13.3%	8.1%[14.2 µM]	·	0.2%
N#Cc1cccc(NC(=O)CNc2cc(S(=O)(=O)N3CCOCC3)ccc2N2CCCC2)c1	·	·	-15.0%	7.3%	?	-25.5%[46.1 µM]	·	0.8%
NS(=O)(=O)c1ccc(CCNC(=O)C(=O)C2C(=O)Nc3ccccc32)cc1 (stereo not given)	-4.7%	·	6.2%	-6.1%	5.3%	14.1%[46.1 µM]	·	-1.1%

High-throughput results (PubChem BioAssay)
